# Screening data as filed in PubChem BioAssay.
# HIV Env fusion – inhibitors of HIV Env-mediated cell fusion. HeLa-JRFL Env/CEM21 cell fusion, luciferase. inhibition, % at 12.3 µM. 360,000 tested, 1.1% active. AID 651610;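 active = mean replicate inhibition score of at least 50 and every replicate individually at or above 50; inconclusive = only one of the two criteria met; inactive = mean below 50 and not all replicates reaching 50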;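 also: 0% = plate neutral controls and 100% = maraviroc near 300 nM; one replicate is shown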
# PABP FP inh – blocks human PABP binding to poly(A) RNA | P11940 | fluorescence polarization | inhibition, % at 35 µM | 290,000 tested, 1% active | AID 2014;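 active = 50% or more with normal probe brightness, or confirmed in later tests; inconclusive = above 50% with abnormal brightness, or retests that disagree; inactive = below 50% or failed in later tests; about a fifth of its hits are not listed in these tables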;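 also: calls also rest on retests at 20 µM and on dose response follow-up; controls were probe without protein and protein plus probe with vehicle; some compounds called inactive have numbers as strong as hits; many hits fall short of the cut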
# Target sequence (P11940 whole entry, looked up): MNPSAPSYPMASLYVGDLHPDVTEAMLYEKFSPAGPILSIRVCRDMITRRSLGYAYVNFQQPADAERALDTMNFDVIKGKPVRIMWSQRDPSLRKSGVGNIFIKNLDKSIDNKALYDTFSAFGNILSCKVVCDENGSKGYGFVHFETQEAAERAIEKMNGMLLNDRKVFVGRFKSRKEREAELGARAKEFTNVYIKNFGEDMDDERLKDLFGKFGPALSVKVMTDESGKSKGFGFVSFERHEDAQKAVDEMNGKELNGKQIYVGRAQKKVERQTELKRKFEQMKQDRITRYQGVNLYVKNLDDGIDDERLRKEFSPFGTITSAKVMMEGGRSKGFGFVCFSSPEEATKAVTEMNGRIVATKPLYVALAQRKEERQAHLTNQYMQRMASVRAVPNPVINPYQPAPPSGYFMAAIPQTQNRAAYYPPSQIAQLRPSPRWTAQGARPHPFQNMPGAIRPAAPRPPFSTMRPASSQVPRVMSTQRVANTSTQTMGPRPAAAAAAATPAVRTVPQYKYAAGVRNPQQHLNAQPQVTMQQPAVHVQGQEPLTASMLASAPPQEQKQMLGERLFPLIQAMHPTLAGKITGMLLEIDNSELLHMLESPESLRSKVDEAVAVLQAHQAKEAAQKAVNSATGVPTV
# CSC inhib – cancer stem cell inhibition. cancer stem cell-like cells viability, luminescence. inhibition, % at 7.5 µM. 300,000 tested, 1.1% active;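 active = mean at 75% or more and at least half the replicates too; inconclusive = mean and replicates disagree; tested in HMLE shEcad cells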;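 also: 0% = median of negative and 100% = median of positive control wells; the first replicate is given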
# eIF4H FP inh – inhibitors of RNA binding by human eIF4H | 290,000 tested, 0.94% active | Q15056 | AID 2012 | eIF4H fluorescence polarization binding assay | inhibition, % at 35 µM;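 active = 50% or more with normal probe brightness, or confirmed in later tests; inconclusive = above 50% with abnormal brightness, or retests that disagree; inactive = below 50% or failed in later tests; about a fifth of its hits are not listed in these tables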;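 also: calls also rest on retests at 20 µM and on dose response follow-up; 0% = protein and probe with vehicle and 100% = probe without protein; strong numbers were not always called active; many hits fall short of the cut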
# MT1-MMP act inh – MT1-MMP (human) activation inhibition | P50281 | HT1080 RFP-PRO-GFP cells, GFP/RFP ratio fluorescence, overnight; percent of plate control window, DMSO zero | GFP/RFP ratio change, % at 20 µM | 360,000 tested, 0.061% active;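 active = GFP/RFP ratio change of at least 30% with cell ATP level not reduced by more than half and red fluorescence within 50% of control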; also: strong numbers were not always called active
#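 Test system: HT1080 RFP-PRO-GFP cells; Benchmarks: DMSO and RFP-L50D-GFP cell wells; Timing: cells overnight before dosing, compound overnight, 37 °C, 5% CO2; Compound: one 20 µM compound dose with 1% DMSO; Read-out: GFP/RFP fluorescence ratio.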
# Rce1 inhib – yeast Ras-converting enzyme inhibition; Q03530; yeast membranes, quenched prenylated peptide cleavage fluorescence; calls only; 290,000 tested, 0.27% active; AID 2563;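 active = fall in fluorescence gain of 50% or more versus controls, with final raw signal at or below 3038400; inconclusive = same 50% fall but final raw signal above 3038400; inactive = fall in fluorescence gain under 50%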;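 also: plate controls were neutral control wells for no effect and wells lacking membranes for full effect; tested at 10 µM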
# UUG fidelity – modulators of start codon recognition fidelity in yeast. S. cerevisiae UUG-firefly luciferase reporter, luminescence/redox ratio. activity score, % at 18.7 µM. 350,000 tested, 0.13% active. AID 602363;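 active = replicate mean at a twofold rise or more, about +100% in these data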;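 also: firefly luciferase made from a UUG start codon reports start codon fidelity; reporter light over untreated wells divided by growth signal over untreated wells; some hits fall short of that in this replicate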
# eIF4H FP inh retest – further read-out of eIF4H FP inh, marked with its call; inhibition, %; compound at 20 µM; confirmation average;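 mean of two retest wells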
# PABP FP inh retest – further read-out of PABP FP inh, marked with its call; inhibition, %; compound at 20 µM; confirmation repeats;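 mean of two retest wells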
# MT1-MMP act inh RFP – also measured in MT1-MMP act inh; calls as there; RFP signal change, %; measured here: RFP expression control read;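 0 = vehicle wells; hits needed this value within 50% of zero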
# Numbers without * were called inactive; i = inactive; ? = inconclusive; · = not tested or not shown; + = active, no number.
SMILES,HIV Env fusion,PABP FP inh,CSC inhib,eIF4H FP inh,MT1-MMP act inh,MT1-MMP act inh RFP,Rce1 inhib,UUG fidelity,others
O=C(Cc1cccs1)N1CCCC(c2nc3c(nnn3Cc3ccccc3Cl)c(=O)[nH]2)C1 (stereo unspecified),18,-4,-16,-1,0,-2,i,·,
CCN(CC)CCCn1c(SCC(=O)Nc2cccc(F)c2)nnc1-c1ccoc1C,-13,4,17,-1,0,5,i,-11,
COc1cc(OC)cc(C(=O)NNC(=O)CCC(=O)c2cccs2)c1,-1,-9,·,-8,-1,4,i,-17,
O=C(CSc1nnc(NC(=O)C2CC2)s1)Nc1ccccc1Cl,-5,-2,·,-13,4,3,i,-16,
COc1cccc(C(=O)NCC(c2ccco2)N2CCOCC2)c1 (stereo unspecified),-3,·,-4,·,1,0,i,-7,
Cc1cc(NC(=O)c2cc(-c3ccccc3C)nc3ccccc23)no1,-33,6,1,-1,-8,-5,i,-9,
Cc1cc(C)nc(SC(C)C(=O)Nc2ccc(S(N)(=O)=O)cc2)n1 (stereo unspecified),-34,4,-5,1,-3,-3,i,4,
CN(C(=O)COC(=O)CCc1c[nH]c2ccccc12)C(c1ccccc1)c1ccccc1,26,-7,-6,12,1,0,i,·,
CCOC(=O)/C(=N\Nc1cc(Cl)ccc1Cl)N1CCN(CC)CC1,·,-12,3,-1,-4,-5,i,·,
COc1cc(C2C(C#N)=C(N)N(N(C)C)C3=C2C(=O)CC(C)(C)C3)ccc1O (stereo unspecified),17,5,1,9,0,5,i,-21,
Cc1nn(C)c(C(=O)NNC(=S)NCC(C)C)c1Cl,3,2,8,6,9,4,i,·,
COc1ccccc1CNC(=O)C(C)Sc1ccc(C)cc1 (stereo unspecified),23,13,5,-3,3,2,i,-11,
CSc1ccc(/C=C(/Sc2nnc(-c3ccccc3)o2)C(=O)O)cc1,-26,-2,2,5,2,2,i,-23,
Cc1ncc([N+](=O)[O-])n1CC(=O)Nc1ccc(OC(F)(F)Cl)cc1,9,2,-11,-14,4,-12,i,-7,
Nc1nonc1C(=O)N/N=C/c1cc2c(cc1Br)OCO2,-11,5,12,28,1,4,i,-2,
CC(=O)c1cccc(NC(=O)CSc2nc3ccccc3c(=O)n2CCCN2CCOCC2)c1,·,·,-2,·,-1,3,·,-12,
CC12CCC(=O)N1C(C(=O)NCCc1ccc(F)cc1)CS2 (stereo unspecified),-35,-1,-9,-10,-3,1,i,-23,
CC(=O)Nc1c(Cl)cnn(-c2ccccc2)c1=O,-26,·,5,·,1,6,i,-20,
O=C1OC(c2ccccc2)=C/C1=C/N1CCCCC1,-87,1,-7,5,-12,3,i,9,
Cc1ccc(Nc2nc(N)c3ccccc3n2)cc1Cl,-307,-2,·,11,26,-4,i,-62,
COc1cccc(C(=O)NCC(=O)N/N=C/c2cccs2)c1,-77,-6,-20,-4,9,1,i,·,
O=[N+]([O-])c1cccc(/C=N/NC2=NCCCCC2)c1,0,-7,22,-2,3,10,i,·,
O=C(COC(=O)Cc1ccsc1)Nc1ccc(Cl)cn1,0,·,1,·,4,4,·,-12,
COc1ccccc1OCC(=O)NCc1n[nH]c(=O)c2ccccc12,-113,·,-14,·,2,-2,i,-3,
Cc1cc(N=CC2=C(O)CC(C)(C)CC2=O)no1,·,-3,4,0,2,7,·,-10,

# Brought forward from above: 3 entries; new compounds follow.
SMILES,HIV Env fusion,PABP FP inh,CSC inhib,eIF4H FP inh,MT1-MMP act inh,MT1-MMP act inh RFP,Rce1 inhib,UUG fidelity,others
O=C(COC(=O)Cc1ccsc1)Nc1ccc(Cl)cn1,0,·,1,·,4,4,·,-12,
COc1ccccc1OCC(=O)NCc1n[nH]c(=O)c2ccccc12,-113,·,-14,·,2,-2,i,-3,
Cc1cc(N=CC2=C(O)CC(C)(C)CC2=O)no1,·,-3,4,0,2,7,·,-10,
C[n+]1ccc(/C=N/Nc2nc(Cl)c(C#N)c(Cl)c2Cl)cc1,10,-12,-7,-8,4,2,i,-21,
COc1ccc(-c2csc(NC(=O)c3c(C)noc3C)n2)cc1OC,9,·,·,·,-1,-12,·,7,
Cc1cc(=O)oc2cc(OCC(=O)NCc3cccnc3)ccc12,-29,-1,4,0,-5,1,·,-11,
CCOc1cc(/C=C\c2[nH]c(=O)[nH]c(=O)c2[N+](=O)[O-])ccc1OC(C)CC (stereo unspecified),-31,7,78*,5,·,·,i,·,
Cc1ccccc1NC(=O)NC1(C(=O)N2CCN(C)CC2)CCCCC1,0,14,-8,7,-2,-1,i,-24,
CCn1c2ccccc2c2cc(NC(=O)c3coc(=O)c(Br)c3)ccc21,-10,118,66,105*,-13,-4,i,-1,eIF4H FP inh retest=84*;PABP FP inh retest=14
C/C(=C/C(=O)NCc1ccccc1)C(=O)O,-38,0,-3,-6,3,6,i,0,
COc1ccccc1C(=O)Nc1ccc(N2CCN(Cc3ccccc3)CC2)cc1,·,4,16,2,-1,-4,i,-10,
CC(C)CSc1nnc2c(n1)[nH]c1ccccc12,-185,-7,2,11,7,0,·,·,
O=C(c1cccs1)N1CCN(Cc2ccncc2)CC1,·,50,1,-6,0,1,i,-6,
Cn1c(=O)c2c(nc3n2CC(COc2ccccc2)O3)n(C)c1=O (stereo unspecified),-1,8,19,-11,0,-5,i,1,
O=C(COc1ccccc1O)Nc1ccccc1Cl,-484,-8,0,4,0,-2,i,-9,
COc1ccc(C2C(CN3CCOCC3)C(=O)N2c2ccccc2)cc1 (stereo unspecified),15,0,2,-2,-1,1,i,·,
Cc1ccc(-c2cc(C(F)F)n3ncc(C(=O)Nc4cn(C)nc4C)c3n2)cc1,0,-7,·,0,-3,-6,i,·,
O=C(Cc1cccs1)N(c1ccc(F)cc1)C1(C(=O)NC2CCCCC2)CCCC1,28,5,11,3,-9,-5,i,·,
O=C(Nc1c(O)c2ccccc2[nH]c1=O)c1ccco1,2,-3,-10,-10,-12,-13,i,-8,
CCOc1ccccc1N(CC(=O)Nc1ccc2c(c1)OCO2)S(C)(=O)=O,-128,-11,10,-5,2,3,i,-9,
COc1ccc2c(C)cc(SCC(=O)c3ccc4c(c3)OCO4)nc2c1,35,-8,30,-6,-4,0,i,·,
Nc1ccc2nc(SCC(=O)Nc3ccc(N4CCOCC4)c(Cl)c3)sc2c1,0,-4,-1,0,2,-15,i,·,
CC1c2[nH]c3ccccc3c2CCN1S(C)(=O)=O (stereo unspecified),8,-7,0,1,2,5,i,-12,
O=C1CC2(CCN(C(=O)c3cccc(Br)c3)CC2)Oc2ccccc21,5,·,-5,·,3,-4,i,-4,
CCCCc1nnc(NC(=O)CSCc2cc(=O)n3ccsc3n2)s1,?,-3,-10,-2,-1,2,i,-22,
Oc1ccc(C[C@H]2CNC(=S)N2C[C@H]2CCCN2C[C@H](Cc2ccccc2)N2C[C@H](Cc3ccc(O)cc3)N(CCc3ccccc3)C2=S)cc1,-216,·,·,·,7,-9,·,-19,
CC1c2ccsc2CCN1S(=O)(=O)c1cccs1 (stereo unspecified),16,9,6,-3,4,-2,i,·,
Cn1c(SCC(=O)Nc2cccc(F)c2)nc2c([nH]c3ccccc32)c1=O,-3,5,7,-3,0,3,i,·,
# Going on with the list.
SMILES,HIV Env fusion,PABP FP inh,CSC inhib,eIF4H FP inh,MT1-MMP act inh,MT1-MMP act inh RFP,Rce1 inhib,UUG fidelity,others
Cc1ccc(NC2=C/C(=N/S(=O)(=O)c3cccs3)c3ccccc3C2=O)cc1,74*,-1,+,2,-31,-43,i,·,
O=C(NCCc1nc2ccccc2[nH]1)/C(=C/c1ccco1)NC(=O)c1ccccc1Br,-13,-8,-10,9,0,6,i,-10,
Cc1ccc(CN2CCN(/N=C/c3sccc3C)CC2)c(C)c1,-7,-12,·,1,-12,-10,i,-11,
CCC(Sc1nc2ccsc2c(=O)n1CCC(=O)O)C(=O)Nc1ccc(Cl)cc1 (stereo unspecified),2,·,·,·,-4,3,·,-25,
CC(C)c1c(O)nc(SCC(=O)N2CCOCC2)[nH]c1=O,·,-6,8,-4,-4,2,i,-12,
CC(=O)NC(Cc1ccccc1)C(=O)NC1CCN(C(=O)NC2CCCCC2)CC1 (stereo unspecified),-85,-9,-13,-3,-3,-1,i,-3,
c1ccc(-c2onc(-c3ccco3)c2-c2ccc3c(c2)OCO3)cc1,17,13,·,6,-2,-5,i,-12,
O=C(NCC1CCCO1)c1coc2nc3ccccc3nc12 (stereo unspecified),·,9,7,6,-2,13,i,-12,
CSc1ccccc1NC(=O)c1cc(CC(C)C)on1,-33,-17,·,4,2,2,i,-23,
CC(=O)c1cccc(-c2cnc3c(NC=O)cc(-c4ccc(C(=O)N5CCOCC5)cc4)cn23)c1,5,·,·,·,0,11,·,3,
Oc1ccccc1/C=N/n1cnn(Cc2ccccc2Cl)c1=S,-1,-10,-4,4,1,0,·,-15,
Cc1ccc(NC2c3ncccc3C(=O)N2c2ccccc2C)cc1C (stereo unspecified),-24,6,-9,-14,-3,0,i,-2,
CC(C)CNS(=O)(=O)c1ccc(CC(C)C)cc1,-8,-17,·,-15,2,1,i,·,
CCCN(CCC)CCCNC(=O)c1cc2c(=O)n(CC)c3ccccc3c2s1,19,10,5,-3,16,2,i,-10,
O=C1C=C(c2ccccc2)C[C@H](c2cccs2)[C@H]1n1cnc([N+](=O)[O-])c1,-56,-9,9,-9,-2,0,i,-10,
CN(C)c1cc(-c2ccc(Cl)c(Cl)c2)oc(=O)c1Cl,-3,-7,9,-5,-1,-5,i,0,
Cc1cc(C(=O)OCC(=O)Nc2ccc(F)cc2F)c(C)o1,·,-2,0,-8,0,1,i,-5,
CCOC(=O)c1cnc2c(C)cccc2c1NCCc1ccc(OC)c(OC)c1,13,-6,19,-2,-5,-9,i,-16,
COc1ccc(CCNC(=O)COc2ccccc2[N+](=O)[O-])cc1OC,-4,3,-11,-2,0,2,·,2,
CC1(C(=O)NC2CCCCCCC2)CCC(=O)N1CCN1CCOCC1 (stereo unspecified),·,-6,-11,-5,0,1,i,-23,
CCN(CCn1cccn1)C(=O)CCc1nnc(Cc2c[nH]c3ccccc23)o1,-85,0,11,4,-3,1,i,·,
Cc1ccccc1C(=O)N/N=C/c1cccc2ccccc12,2,4,5,-11,0,-4,i,-15,
CCc1cccc(OCC2Cn3c(nc4c3c(=O)[nH]c(=O)n4C)O2)c1 (stereo unspecified),9,12,6,-2,-1,1,i,-14,
CC(C)N(CCc1ccncc1)C(=S)Nc1ccc(F)c(Cl)c1,20,-14,-14,-6,2,-1,i,263*,
COc1ccc(CC(=O)NC2CCN(CC(=O)Nc3ccc4c(c3)OCCO4)CC2)cc1OC,-50,-4,-1,0,3,0,i,-6,
COc1cccc(OC)c1C(=O)NNS(=O)(=O)c1ccc2ccccc2c1,-6,-8,-26,30,2,1,i,-7,
CN(CC(=O)NCc1cccnc1)S(=O)(=O)c1ccccc1,1,10,-3,7,1,6,i,-4,
CC1(C)C(=O)Nc2ccccc2N1C(=O)CSc1nc(-c2ccccc2)cs1,32,26,·,13,-2,-15,i,·,
CC(=O)Nc1ccc(-c2nnc(SCC(=O)Nc3ccc4c(c3)oc3ccccc34)n2C)cc1,i,-1,8,-9,-1,-2,i,-17,

# Two entries picked at random from those above:
SMILES,HIV Env fusion,PABP FP inh,CSC inhib,eIF4H FP inh,MT1-MMP act inh,MT1-MMP act inh RFP,Rce1 inhib,UUG fidelity,others
Oc1ccccc1/C=N/n1cnn(Cc2ccccc2Cl)c1=S,-1,-10,-4,4,1,0,·,-15,
COc1ccc(CC(=O)NC2CCN(CC(=O)Nc3ccc4c(c3)OCCO4)CC2)cc1OC,-50,-4,-1,0,3,0,i,-6,
